Screens deposited in PubChem by National Center for Advancing Translational Sciences (NCATS).
HPGD inh = qHTS Assay for Inhibitors of HPGD (15-Hydroxyprostaglandin Dehydrogenase); 4.3% of 150,000 active; purified HPGD, NADH fluorescence kinetic, PGE2 substrate; AID 894, 2007; Potency, µM, for the others: at the highest dose activity change, negative = inhibition, usual class: inhibitors; 15-hydroxyprostaglandin dehydrogenase [NAD(+)] (Homo sapiens), P15428; active = well fitted inhibition curve with a large enough effect (not every such curve was filed as active); inconclusive = small, poorly fitted or top-dose-only effect, or another doubt; inactive = no such curve, though single readings can be large or run the other way;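 note: top concentration of the series not given in the record; plate controls included wells without enzyme; inactives centre near -10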
Target sequence (P15428 whole entry, looked up): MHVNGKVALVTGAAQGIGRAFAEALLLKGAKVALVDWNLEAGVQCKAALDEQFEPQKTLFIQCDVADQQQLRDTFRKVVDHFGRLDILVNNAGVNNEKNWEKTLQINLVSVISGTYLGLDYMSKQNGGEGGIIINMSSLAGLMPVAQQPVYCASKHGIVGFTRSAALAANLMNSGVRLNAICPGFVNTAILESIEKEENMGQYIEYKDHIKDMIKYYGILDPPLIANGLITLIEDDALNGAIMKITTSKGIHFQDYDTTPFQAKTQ
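NADH formation kinetics: reaction with 30 uM PGE2 and 1 mM NAD+ (final), 20 nM enzyme, Tris-HCl pH 8 with Tween 20, after 15 min compound preincubation at room temperature. Fluorescence change, last versus first of five reads.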
* marks the source's active call; other numbers are inactive results. % is set by controls: 0 for no effect and ±100 for the full control effect; potency is the fitted concentration of half-maximal effect. A portion of the library; rates above refer to the full screens.

Results for Cc1ccc(Nc2nnns2)cc1C ?
HPGD inh: 22µM*

Results for COc1ccc(Cl)cc1N(CC(=O)N1CCC(C)CC1)S(C)(=O)=O ?
HPGD inh: -15%

What do the screens show for `CCN(CC)CCn1c(NCc2ccco2)nc2ccccc21`?
HPGD inh: -1%

Results for COc1ccc(C(=O)Nn2c(SCc3cccc([N+](=O)[O-])c3)nc3ccccc3c2=O)cc1 ?
HPGD inh: -19%

How did O=P1(O)Oc2c(c(-c3ccccc3)cc3ccc4ccccc4c23)-c2c(-c3ccccc3)cc3ccc4ccccc4c3c2O1 do in these assays?
HPGD inh: -23%

How did Cc1ccc(NC(=O)c2ccccc2C(=O)O)cc1C do in these assays?
HPGD inh: -8%

Results for CN(C)CC(C)(C)CNC(=S)NCc1ccc2c(c1)OCO2 ?
HPGD inh: -6%

What do the screens show for `CC1(C)OC(=O)C(=CNC(Cc2c[nH]c3ccccc23)C(=O)O)C(=O)O1` (stereo unspecified)?
HPGD inh: -5%

What do the screens show for `CCn1c(COc2ccc3c(c2)OCO3)nnc1SCC(=O)c1ccc(Cl)cc1`?
HPGD inh: -9%

Results for CCn1c(=O)cc(SCC(=O)Nc2ccc(Cl)cc2)c2ccccc21 ?
HPGD inh: -12%

How did Cc1c(C(=O)NCc2ccccc2)oc2c1C(=O)CCC2 do in these assays?
HPGD inh: inconclusive

What do the screens show for `CCN1C(=O)N[C@@H](c2ccco2)C(C(C)=O)=C1C`?
HPGD inh: -2%

Results for CCN(CC)C(=O)CSc1nnc(-c2cccnc2)n1Cc1ccccc1 ?
HPGD inh: -15%

What do the screens show for `O=C1CC(c2ccccc2)CN1C(=O)c1cccc([N+](=O)[O-])c1` (stereo unspecified)?
HPGD inh: -3%

What do the screens show for `CCOc1cc2[nH]c(=S)n(CCCOC)c(=O)c2cc1OCC`?
HPGD inh: -15%

How did O[C@@H]([C@H](O)[C@@H](O)CBr)[C@@H](O)CBr do in these assays?
HPGD inh: 0%

Results for COc1ccc(C(=O)Nn2cnc3scc(-c4cccs4)c3c2=O)c(O)c1 ?
HPGD inh: -7%

How did O=C(CN(c1ccc(F)cc1)S(=O)(=O)c1ccc2c(c1)OCCO2)Nc1ccccc1 do in these assays?
HPGD inh: -8%

How did COc1ccc(C(=O)N2CCN(C(=O)c3cc(OC)c(OC)c(OC)c3)CC2)cc1 do in these assays?
HPGD inh: -16%

Results for O=C(c1cccc(F)c1)N1CCC[C@@]2(CCN(c3ccccn3)C2)C1 ?
HPGD inh: -10%

How did O=C(Cn1cnc2sc(-c3ccccc3)cc2c1=O)NCc1ccccc1 do in these assays?
HPGD inh: -21%

What do the screens show for `COc1ccc(CN2CC(C(=O)NCc3ccc4c(c3)OCO4)CC2=O)cc1` (stereo unspecified)?
HPGD inh: 0%

How did COc1ccccc1C1CC(=O)Oc2cc(O)ccc21 (stereo unspecified) do in these assays?
HPGD inh: -7%

What do the screens show for `O=C(Cc1ccccc1)NCCSCc1ccccc1`?
HPGD inh: inconclusive

What do the screens show for `COc1ccc(N2C(=O)CCC2(C#N)c2ccc(Br)cc2)cc1` (stereo unspecified)?
HPGD inh: -3%

Results for [N-]=[N+]=Nc1nc2c(N)ncnc2n1C1OC(CO)C(O)C1O (stereo unspecified) ?
HPGD inh: -10%

Results for O=C(Oc1cccc2cccnc12)c1ccc2c(c1)OCCO2 ?
HPGD inh: -24%

How did O=C(N/N=C/c1ccc2cccc(OCc3ccccc3)c2n1)c1ccc(Br)cc1 do in these assays?
HPGD inh: inconclusive

What do the screens show for `CC(C)c1ccc2c(c1)C1Cc3ccccc3C1N2` (stereo unspecified)?
HPGD inh: inconclusive

Results for O=C1CC(c2cccc(Cl)c2)Cc2nc(N3CCOCC3)ncc21 (stereo unspecified) ?
HPGD inh: -28%

Brought forward from above: 2 entries, then new ones.
What do the screens show for `CC(C)c1ccc2c(c1)C1Cc3ccccc3C1N2` (stereo unspecified)?
HPGD inh: inconclusive

Results for O=C1CC(c2cccc(Cl)c2)Cc2nc(N3CCOCC3)ncc21 (stereo unspecified) ?
HPGD inh: -28%

How did CC(=O)OCc1ccc2c(c1)OCO2 do in these assays?
HPGD inh: -13%

What do the screens show for `Cc1cc(=O)c2c(O)cc(O)c(C)c2o1`?
HPGD inh: -18%

What do the screens show for `O=C(CN1CCN(Cc2ccc(F)cc2)C1=O)NCc1cccs1`?
HPGD inh: -7%

Results for COc1ccc(C2=CSC3=NCCN23)cc1F ?
HPGD inh: -20%

How did COc1ccc(C)cc1NC(=O)CN(c1ccccc1F)S(C)(=O)=O do in these assays?
HPGD inh: -2%

How did COC(=O)c1ccc(N2C(=O)CC(N(C)Cc3ccccc3)C2=O)cc1 (stereo unspecified) do in these assays?
HPGD inh: -13%

Results for CCNC(=S)N1CCn2c(nc3ccccc32)C1 ?
HPGD inh: -12%

How did COC(=O)c1cc(C(=O)OC)n(Cc2ccc(Br)cc2)n1 do in these assays?
HPGD inh: -2%

How did O=S(=O)(/N=C(/Nc1cc(N2CCOCC2)ncn1)c1ccc(F)cc1)c1ccccc1 do in these assays?
HPGD inh: 2%

Results for COc1cc(CNCCc2ccc(S(N)(=O)=O)cc2)ccc1OCC(=O)NC(C)(C)C ?
HPGD inh: -8%

Results for O=C(CC1SC(=Nc2ccccc2)N(CCCO)C1=O)Nc1ccc(Cl)cc1 (stereo unspecified) ?
HPGD inh: -9%

Results for COc1cc(C2C(C(=O)c3ccco3)=C(O)C(=O)N2c2cc(C)on2)cc(Br)c1O (stereo unspecified) ?
HPGD inh: 2%

What do the screens show for `CN1C=CC=C/C1=C1\SC(=S)N(c2ccccc2)C1=O`?
HPGD inh: -12%

Results for CCOCCn1c(CCCO)nc2ccccc21 ?
HPGD inh: -11%

Results for CCOC(=O)c1c(NC(=O)c2nn(CC)cc2Br)c(C#N)nn1-c1ccccc1 ?
HPGD inh: inconclusive

Results for CC(C)(C)OC(=O)N1CCN(c2ccc(CNC(=O)c3ccc(Cl)cc3)cc2)CC1 ?
HPGD inh: -28%

Results for Cn1c(SCc2ccccc2Cl)nnc1-c1cnccn1 ?
HPGD inh: 1%

How did O=[N+]([O-])c1ccccc1NCc1ccc(Cl)cc1 do in these assays?
HPGD inh: -15%

How did Cc1cc(NC(=O)CN2C(=O)NC(C)(c3ccccc3)C2=O)no1 (stereo unspecified) do in these assays?
HPGD inh: -3%

Results for O=C(COC(=O)c1ccncc1)Nc1cccc(Cl)c1 ?
HPGD inh: -8%

The closing 5 compounds of the section before come first, to join the parts:
Results for CC(C)(C)OC(=O)N1CCN(c2ccc(CNC(=O)c3ccc(Cl)cc3)cc2)CC1 ?
HPGD inh: -28%

Results for Cn1c(SCc2ccccc2Cl)nnc1-c1cnccn1 ?
HPGD inh: 1%

How did O=[N+]([O-])c1ccccc1NCc1ccc(Cl)cc1 do in these assays?
HPGD inh: -15%

How did Cc1cc(NC(=O)CN2C(=O)NC(C)(c3ccccc3)C2=O)no1 (stereo unspecified) do in these assays?
HPGD inh: -3%

Results for O=C(COC(=O)c1ccncc1)Nc1cccc(Cl)c1 ?
HPGD inh: -8%

How did COC(=O)c1ccc(NC(=O)C2CC(=O)N(c3cc(C)ccc3C)C2)cc1 (stereo unspecified) do in these assays?
HPGD inh: -11%

Results for O=C(c1csnn1)N1CCC[C@@]2(CCN(c3ncccn3)C2)C1 ?
HPGD inh: -13%

How did COc1cc(NC(=O)Cn2nnc(-c3ccccc3N)n2)cc(OC)c1 do in these assays?
HPGD inh: -7%

How did Oc1ccccc1-c1nc(NCC2CCCO2)c2ccccc2n1 (stereo unspecified) do in these assays?
HPGD inh: -9%

What do the screens show for `COc1cc(N/C(=N/S(=O)(=O)c2ccccc2)c2ccccc2)ncn1`?
HPGD inh: -21%

How did CC(=O)OCC(=O)[C@@]12OC(C)(C)O[C@@H]1C[C@H]1[C@H]3C[C@H](F)C4=CC(=O)C=C[C@@]4(C)[C@]3(F)[C@H](O)C[C@@]12C do in these assays?
HPGD inh: -4%

What do the screens show for `Cn1c(SCC#N)nnc1-c1cnccn1`?
HPGD inh: -2%

Results for COc1ccc(OC)c(NS(=O)(=O)c2ccc(Cl)nc2)c1 ?
HPGD inh: -6%

Results for O=C(c1ccc2c(c1)OCO2)N1CCNc2ccccc2C1 ?
HPGD inh: 25µM*

What do the screens show for `O=S(=O)(c1ccccc1)N1CCC2(CCCN(Cc3nccs3)C2)CC1`?
HPGD inh: -3%

Quoted from the entries so far for reference:
How did O=C(N/N=C/c1ccc2cccc(OCc3ccccc3)c2n1)c1ccc(Br)cc1 do in these assays?
HPGD inh: inconclusive

What do the screens show for `CC(C)c1ccc2c(c1)C1Cc3ccccc3C1N2` (stereo unspecified)?
HPGD inh: inconclusive

Following part
What do the screens show for `COc1ccccc1C(=O)NN1C(=O)C2C3C=CC(O3)C2C1=O` (stereo unspecified)?
HPGD inh: -10%

Results for COc1ccccc1C1c2c(C)nn(-c3ccccc3)c2NC(=O)C1NC(=O)c1ccccc1 (stereo unspecified) ?
HPGD inh: -9%

How did Cc1cc(C)nc(N(C#N)S(=O)(=O)c2ccccc2)n1 do in these assays?
HPGD inh: -12%

How did CCc1cccc(C)c1NC(=O)COC(=O)c1c2c(nc3ccccc13)/C(=C\c1cccs1)CCC2 do in these assays?
HPGD inh: inconclusive

How did CCOC(=O)c1c(CN2CCCCC2)oc2ccc(OC)cc12 do in these assays?
HPGD inh: inconclusive

Results for COc1ccc(C2CC(C(F)(F)F)n3nc(C(=O)NCc4c(C)nn(C)c4C)c(Cl)c3N2)cc1 (stereo unspecified) ?
HPGD inh: -27%

How did COC(=O)C1=C(C)N(c2ccc(C)c(C)c2)/C(=C/c2cccs2)C1=O do in these assays?
HPGD inh: -15%

How did CCNC(=O)NC(=O)C(C)OC(=O)c1ccc(-n2nc(SC)sc2=S)cc1 (stereo unspecified) do in these assays?
HPGD inh: -8%

How did CC1CC(C)CN(C(=O)Cn2c(-c3nonc3N)nc3ccccc32)C1 (stereo unspecified) do in these assays?
HPGD inh: 3%

How did Cc1cc(Br)ccc1OCCCCN1CCC(C)CC1 do in these assays?
HPGD inh: -4%

Results for COCCCn1c(-c2ccc(OC)cc2)nc2nc3ccccc3nc21 ?
HPGD inh: inconclusive

How did COc1ccc2c(c1)c1nc3ccccc3nc1n2CC(=O)OC(C)C do in these assays?
HPGD inh: -16%

How did CCCC(=O)N(Cc1cc2ccccc2[nH]c1=O)c1ccccc1OC do in these assays?
HPGD inh: -25%

Results for COc1cc2c(cc1OC)CN(C(C)C(=O)N1CCc3ccccc31)CC2 (stereo unspecified) ?
HPGD inh: -4%

What do the screens show for `CCn1ncc(C(=O)Nc2ccc(S(=O)(=O)N3CCCC3)cc2)c1C`?
HPGD inh: -10%

Results for COc1ccc(NC(=O)c2nc3nccc(C)n3n2)cn1 ?
HPGD inh: -12%

How did CCN(c1ccccc1)S(=O)(=O)c1ccc(Cl)c(NC(=O)CSc2ncn[nH]2)c1 do in these assays?
HPGD inh: -7%

What do the screens show for `COc1cccc(OCCCN2CCN(S(=O)(=O)c3ccc(NC(C)=O)cc3)CC2)c1`?
HPGD inh: -11%

What do the screens show for `O=C(c1ccco1)N1CCN(Cc2ccc(Cl)cc2)CC1`?
HPGD inh: 1%

What do the screens show for `O=C(Cc1cccc(C(F)(F)F)c1)NCc1ccc(Cl)cc1`?
HPGD inh: -16%

How did CCCCC1C(=O)N(c2ccccc2)N(c2ccc(O)cc2)C1=O (stereo unspecified) do in these assays?
HPGD inh: inconclusive

How did O=C(N1CCCCC1)N1CCN(C(=O)N(c2ccccc2)c2ccccc2)CC1 do in these assays?
HPGD inh: -1%

How did CCCc1cc(=O)oc2c(C)c3occ(C)c3cc12 do in these assays?
HPGD inh: -5%

What do the screens show for `Cc1ccc(/C=C2/Sc3ccccc3N(CC(=O)NCCCOC(C)C)C2=O)cc1`?
HPGD inh: -12%

How did CSCCC(NC(=O)c1ccc([N+](=O)[O-])cc1Cl)C(=O)OCC(=O)C12CC3CC(CC(C3)C1)C2 (stereo unspecified) do in these assays?
HPGD inh: -5%

What do the screens show for `O=C(COc1ccc(Br)cc1)OCc1nnc(-c2ccccc2)o1`?
HPGD inh: 28µM*

What do the screens show for `Cc1cc(NC(=O)CSc2nnc(COc3ccccc3)o2)no1`?
HPGD inh: -5%

What do the screens show for `O=C(/C=C/c1ccco1)NC(=S)Nc1cccc([N+](=O)[O-])c1`?
HPGD inh: 18µM*

How did CN1CCN(c2ccc(NC(=O)c3ccccc3Br)cc2)CC1 do in these assays?
HPGD inh: 3%

Results for CCOC(=O)Cc1cc(=O)n2[nH]c(C)c(-c3ccc(Cl)cc3)c2n1 ?
HPGD inh: inconclusive

How did COc1ccc(C(=O)Nc2c(N)nc(SCC(=O)N3CCCCCC3)[nH]c2=O)cc1OC do in these assays?
HPGD inh: -19%

Results for Cc1noc(C)c1COC(=O)CCc1nc2ccccc2s1 ?
HPGD inh: -14%

Results for Cc1nc2sc(C(c3ccco3)N3CCN(c4cccc(Cl)c4)CC3)c(O)n2n1 (stereo unspecified) ?
HPGD inh: -9%

How did CCCCNC(=O)CSc1nc2ccccc2n1S(=O)(=O)c1ccc(Cl)cc1 do in these assays?
HPGD inh: 2µM*

How did O=C(NCc1ccccn1)C1CCCN(S(=O)(=O)c2ccc(Br)cc2)C1 (stereo unspecified) do in these assays?
HPGD inh: -9%

How did O=C(O)CCC(=O)c1cccc2ccccc12 do in these assays?
HPGD inh: -20%

How did Cc1ccc(N(CC(=O)NC2CCC(C)CC2)S(=O)(=O)c2cccnc2)cc1 (stereo unspecified) do in these assays?
HPGD inh: 1%

How did Cc1ccc(S(=O)(=O)N2CCCC2C(=O)Oc2ccccc2)cc1 (stereo unspecified) do in these assays?
HPGD inh: -18%

How did CCOc1cc(NC(=O)c2ccco2)c(OCC)cc1NC(=O)COc1ccccc1 do in these assays?
HPGD inh: inconclusive
